Compound activity (PubChem)
Rango-impB inh: inhibitors of Rango-importin beta complex formation. 340,000 tested, 0.031% active. Q14974. Rango CFP/YFP FRET sensor + importin beta, 45 min. Potency, µM (top dose mostly 92.2 µM), for the others: at the highest dose inhibition of complex formation; active = rising FRET ratio curve, often small or poorly fitted; inconclusive = mostly compound fluorescence or quenching in the first reads; inactive = flat curves in all reads;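 further: potency means the concentration at half of the fitted maximal effect; 0% = DMSO wells and 100% = buffer wells lacking importin beta; nearly all actives have a fitted effect of over 15% in size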
Target sequence (Q14974 whole entry, looked up): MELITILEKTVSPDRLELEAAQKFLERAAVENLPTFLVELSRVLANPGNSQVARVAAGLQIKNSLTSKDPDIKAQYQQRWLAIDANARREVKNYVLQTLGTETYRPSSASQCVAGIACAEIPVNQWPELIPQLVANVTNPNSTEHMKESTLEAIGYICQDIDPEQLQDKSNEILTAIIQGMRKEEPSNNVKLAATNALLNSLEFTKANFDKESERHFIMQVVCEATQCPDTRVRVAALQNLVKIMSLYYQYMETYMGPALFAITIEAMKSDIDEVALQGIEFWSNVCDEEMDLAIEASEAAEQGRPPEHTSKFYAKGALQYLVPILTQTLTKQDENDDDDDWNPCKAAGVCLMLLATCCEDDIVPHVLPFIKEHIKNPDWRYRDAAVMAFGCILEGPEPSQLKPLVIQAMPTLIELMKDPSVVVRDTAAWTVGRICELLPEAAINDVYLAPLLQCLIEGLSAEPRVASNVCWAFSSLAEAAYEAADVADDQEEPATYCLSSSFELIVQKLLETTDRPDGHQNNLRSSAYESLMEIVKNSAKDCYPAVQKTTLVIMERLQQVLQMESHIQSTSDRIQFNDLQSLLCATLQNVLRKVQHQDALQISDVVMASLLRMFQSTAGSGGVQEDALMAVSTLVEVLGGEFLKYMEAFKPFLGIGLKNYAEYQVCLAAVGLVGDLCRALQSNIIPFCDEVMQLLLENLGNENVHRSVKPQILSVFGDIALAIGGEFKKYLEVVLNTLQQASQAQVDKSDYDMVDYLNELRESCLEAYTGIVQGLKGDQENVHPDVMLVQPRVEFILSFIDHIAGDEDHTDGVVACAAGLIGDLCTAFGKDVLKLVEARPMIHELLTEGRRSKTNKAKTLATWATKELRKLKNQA
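FRET biosensor Rango (snurportin 1 IBB between N-terminal EYFP and C-terminal Cerulean), 50 nM in PBS/1 mM DTT/0.02% Tween-20/0.1% BSA, preincubated 5 min RT with compound; 0.125 microM importin beta added, 45 min RT, CFP/YFP FRET ratio read.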
GLA inh pH 4.5: inhibitors of human alpha-galactosidase A at pH 4.5 | P06280 | purified enzyme, 4-MU-alpha-Gal fluorescence, pH 4.5 | activity change, negative = inhibition, % at 105 µM | 230,000 tested, under 10 active; inconclusive = small, poorly fitted or top-dose-only inhibition, or a rising curve; inactive = flat fitted curve, though single readings scatter; no compound was filed as active;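 further: 0% = full activity with enzyme and -100% = basal without enzyme; dose as in the result columns while the protocol names 77 µM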
miR-21 FLuc: raises the signal of a miR-21 reporter; HeLa miR-21 FLuc reporter, luciferase, 48 h; Potency, µM (series often up to 38.3 µM), for inactives: at the top dose reporter change, positive = more light; 340,000 tested, under 10 active; active = well fitted rising curve with a large enough effect; inconclusive = small, poorly fitted or top-dose-only effect; inactive = no such curve, though single readings can be large or run the other way;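 further: % of control where 0% means no effect; miR-21 action dims this reporter so a rising signal means less miR-21 action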
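HeLa miR-21-FLuc reporter line, endogenous miR-21; 2000 cells/well in DMEM/10% FBS; compound titration up to ~40uM final, 48 h, 37 degree Celsius; luciferase detection reagent, 15 min lysis, CCD luminescence.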
Rango dissoc inh: inhibitors of RanGTP-induced Rango-importin beta complex dissociation; O95149+P62826; Biochemical FRET Rango-importin beta, RanGTP-induced dissociation; Potency, µM (doses to about 46.1 µM), without a hit: at the top dose activity change, negative = inhibition; 340,000 tested, 0.071% active; AID 540253; active means falling FRET ratio curve, often poorly fitted, with flat reads before Ran was added; inconclusive means other falling curves, or compound fluorescence or quenching; inactive means flat or rising ratio curve;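 further: potency means the concentration at half of the fitted maximal effect; % of control where 0% means no effect; nearly all actives have a fitted effect of over 45% in size; -100% = wells without RanGTP and RCC1; the record marks most hits as doubtful in a second field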
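Two FRET readings bracket the reaction: one 5 min after compound meets Rango–importin beta, another 45 min after RanGTP-RCC1 (0.6 uM Ran, 0.2 uM RCC1, 2 mM GTP) is added. Only the second defines inhibition.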
* marks the source's active call; other numbers are inactive results; ? = inconclusive; . = no result given; & = joins results of further samples; [ ] = dose if it differs, or a comment. An excerpt; the hit share may differ from the screen's.

SMILES	Rango-impB inh	GLA inh pH 4.5	miR-21 FLuc	Rango dissoc inh
CN(C(=O)c1ccc(NC(=O)C2CCCN(C(=O)OC(C)(C)C)C2)cc1)C1CC1 (stereo not given)	-7.9%	.	.	37.1%
CC(C)OCCCNC(=O)c1c(N)n(/N=C/c2cccs2)c2nc3ccccc3nc12	?	2.5	0.6%	?
COCc1cc(=O)n2[nH]c(C(F)(F)F)nc2n1	-3.9%	5.2	-2.3%	0.1%
COc1ccc(CN2C(=S)NC(C)(C)CC2(C)O)cc1 (stereo not given)	0.6%	-2.1	-1.6%	0.0%
CCN1C(=O)/C(=C/C2=Cc3ccccc3OC2C)SC1=S (stereo not given)	-0.4%	-0.4	-0.4%	?
CCOC(=O)CSc1ncnc2c1nnn2-c1ccc(F)cc1	1.9%	0.2	-1.1%	-0.8%
Cc1ccc(C(c2sc3nc(C)nn3c2O)N2CCN(C(=O)c3ccco3)CC2)cc1 (stereo not given)	-1.3%	-3.2	-7.8%	16.4%
COCCn1c(SCC(=O)NC2(C#N)CCCCC2)nc2ccccc2c1=O	-0.2%	.	.	8.6%
O=C(NCc1ccccc1)C1CCN(S(=O)(=O)c2cccc3cccnc23)CC1	3.1%	1.4	-0.8%	38.6%
O=C(Cc1ccccc1[N+](=O)[O-])Nc1ccccc1C(=O)N1CCCC1	-1.4%	4.4	-1.0%	7.0%
COc1cccc(C(=O)N/N=C/c2cn[nH]c2-c2ccc(OC)cc2OC)c1	0.5%	-12.7	-3.5%	-14.3%
CCCOc1ccc(OCCOCCNCc2ccccc2)cc1	-0.1%	3.0	-1.3%	0.6%
CCOc1ccccc1NC(=O)CSc1ncnc2c1oc1ccccc12	0.4%	4.2	-5.3%	-16.0%
CN(C)c1ccc(/C=N/NC(=O)c2cc(-c3ccc4c(c3)OCO4)n[nH]2)cc1	?	-5.1	4.9%	-21.9%
COc1ccnc2c1c(=O)n(Cc1ccc(Cl)cc1Cl)c(=O)n2C	0.7%	.	-8.7%	11.8%

Next part; it opens with the two that closed the last part.
SMILES	Rango-impB inh	GLA inh pH 4.5	miR-21 FLuc	Rango dissoc inh
CN(C)c1ccc(/C=N/NC(=O)c2cc(-c3ccc4c(c3)OCO4)n[nH]2)cc1	?	-5.1	4.9%	-21.9%
COc1ccnc2c1c(=O)n(Cc1ccc(Cl)cc1Cl)c(=O)n2C	0.7%	.	-8.7%	11.8%
CC1CCC(NC(=O)CN(C)S(=O)(=O)c2ccc3c(c2)CCC(=O)N3)CC1 (stereo not given)	3.2%	.	-11.0%	-9.2%
CCOc1c(C(N)=O)cc([N+](=O)[O-])cc1[N+](=O)[O-]	-3.7%	-19.0	0.0%	-22.6%
CCN(CC)C(=O)C1CCN(C(=O)c2oc3ccc(C)cc3c2C)CC1	0.4%	.	-17.0%	8.4%
Cc1ccc(NC(=O)CSC(C)C(=O)OC(C)C(=O)NC2CCCCC2C)cc1 (stereo not given)	2.1%	.	.	4.1%
Cc1ccccc1NS(=O)(=O)c1cc(S(C)(=O)=O)ccc1Cl	3.0%	5.2	-8.3%	-6.8%
C=CCOC(=O)C(=O)/C=C/c1ccc2c(c1)Cc1ccccc1-2	0.3%	-1.9	-13.8%	-0.8%
CCC1=C(OC(=O)N(CC)CC)N2C(=O)OC(=NCCc3c[nH]c4ccccc34)[C@]2(Cc2ccccc2)[C@H]2C1=CC[C@H]1C(=O)NC(=O)[C@H]12	0.3%	-21.8&-7.0	28.8%	-15.2%
CSc1ccccc1NC(=O)CN(C)Cc1ccc(Br)cc1	-1.0%	-17.0	-4.2%	12.3%
Cc1cc(Br)c2c(c1)=C(c1sc(N3CCCCCC3)nc1O)C(=O)N=2	0.7%	6.5	-43.0%	-0.5%
CSc1ccccc1C(=O)NCc1cccnc1	6.4%	-16.1	0.0%	-13.2%
CC(C(=O)NCc1cccs1)n1cccc1 (stereo not given)	-4.6%	2.0	-7.0%	-10.5%
O=C(COC(=O)c1ccccn1)NNC(=O)c1ccc(Br)cc1	0.7%	.	.	-4.6%
Fc1cccc(CSc2nc3ncccc3[nH]2)c1	1.2%	1.9	-51.9%	9.4%
COc1ccc(N2CCN(CCCNC(=O)C(=O)c3c(C)n(C)c4ccccc34)CC2)cc1	0.0%	.	-5.9%	4.3%
Cc1nc(SCC(=O)NC(=O)NCc2ccccc2)nc(C)c1C	-0.9%	-2.0	-5.7%	6.7%
CCC(OC(=O)c1ccco1)C(=O)NCc1ccc(OC)cc1 (stereo not given)	0.0%	.	-4.3%	-7.2%
COc1ccccc1Nc1nc(N)nc(CSc2nccn2C)n1	0.0%	-3.2	-17.6%	8.3%
COCCN1Cc2cccc(C(=O)NCc3ccccn3)c2C1=O	6.5%	-5.2	-10.8%	-8.0%
CCOC(=O)c1c(C)[nH]c(C)c1C(=O)CSc1nc2ccccc2c(=O)n1-c1ccc(Cl)cc1	?	-17.0	24.7%	0.0%
Cc1ccc2nc(SCC(=O)Nc3c(F)cccc3F)[nH]c2c1	0.2%	-6.1	-15.3%	19.6%
Cc1cc(C)cc(OCc2ccc(C(=O)N3N=C(C(F)F)CC3(O)C(F)F)o2)c1 (stereo not given)	0.0%	7.3	-9.2%	1.6%
CNc1oc(/C=C/c2cccc(OC)c2)nc1C#N	?	.	-81.1%	?
CC(C)(C)CC(=O)Nc1ccc(-c2nnc3n2CCCCC3)cc1	-3.0%	.	-12.2%	-15.9%
CCOC(CNCc1cc(C)c2[nH]c3ccccc3c2c1C)OCC	1.0%	.	.	3.0%
CC(C)(C)c1ccc(/C=C/C(=O)Nc2cccnc2)cc1	-0.6%	.	-32.4%	-14.8%
CN1C(=O)C(=O)N(CC(=O)N2CCc3ccccc32)C1=O	6.3%	-0.1	0.5%	-16.9%
Cc1ccnc(N2CCC(C(=O)Nc3ccc4c(c3)CCC4)CC2)n1	1.6%	-10.9	-3.4%	-6.3%
O=C(Cn1ccc2ccccc2c1=O)NCCC(=O)N1CCCCC1	-0.1%	.	2.3%	12.6%
CC1(C)N=C(N)N=C(N)N1c1ccc(Oc2ccc(Cl)cc2)c(Cl)c1	0.1%	.	?	-11.8%
CCCCC(=O)NC(c1ccccc1OC)c1ccc2cccnc2c1O (stereo not given)	5.0%	-1.4	?	1.4%
COc1ccc(NC(=O)Cn2nnc(C(=O)NCc3ccc(C)cc3)c2N)cc1Cl	?	.	-10.7%	-0.2%
Cc1ccc(SCC(=O)Nc2ccc(F)cc2[N+](=O)[O-])cc1C	0.9%	-1.2	-8.5%	1.0%
COc1ccccc1NC(=O)C1(C)Cc2ccccc2C(=O)O1 (stereo not given)	5.1%	-3.3	-12.8%	41.1%
S=C1NCN(C2CCCCC2)CN1Cc1ccccc1	1.5%	9.4	-4.2%	12.0%
O=C(Nc1cccc(Cl)c1)c1cc2c(=O)n3ccccc3nc2s1	-2.4%	.	-5.9%	-24.6%
CCCCc1ccc(NC(=O)C2CCCO2)cc1 (stereo not given)	-5.5%	1.7	-64.5%	8.6%
Fc1ccc(-c2nnn(Cc3ccc(F)cc3Cl)n2)cc1	-1.6%	.	-40.1%	2.5%
c1ccc2nc(-c3ccncc3)ccc2c1	-0.2%	-19.5	-49.0%	-4.7%
COc1ccc(CCNC(=S)NC(=O)c2ccc(Br)cc2)cc1OC	-1.4%	2.6	-9.3%	7.7%
COc1cc2[nH]c(=O)n(CCCC(=O)NC3CCCCC3)c(=O)c2cc1OC	-0.6%	.	5.6%	-14.6%
CSc1nnc([C@@H]2CCCN2C(=O)OC(C)(C)C)o1	5.9%	-4.0[21.1 µM]	0.8%	31.1%
Cc1ccc(OCC(=O)N(Cc2ccccc2)C(C)C)c([N+](=O)[O-])n1	0.7%	-3.4	-15.8%	9.6%
CC1(c2ccc(Cl)cc2)NC(=O)N(CC(=O)N2CCc3ccccc3C2)C1=O (stereo not given)	1.5%	.	.	4.3%
O=C(NC(=S)Nc1ccc2oc(=O)ccc2c1)c1cccc(Cl)c1	1.2%	.	-1.5%	2.5%
CC1=C/C(=N\NC(=O)c2ccc(O)cc2)CC1	3.0%	-7.0	-13.4%	7.4%
O=C(NC(=S)N1CCN(c2ccccc2)CC1)c1c(F)cccc1F	2.7%	.	-11.6%	0.5%
CNc1cc(C)nc(-n2nc(C)cc2C)n1	0.5%	-0.4	1.8%	-0.3%
COCCCn1c(SCC(=O)Nc2nc3ccccc3s2)nnc1-c1ccoc1C	-0.3%	-10.1	-1.4%	-1.6%
COc1ccc(N2CCN(C(=O)COC(=O)c3ccc(OC(F)F)cc3)CC2)cc1	0.1%	.	.	-19.8%
Cc1cc(C)cc(NC(=S)Nc2ccccn2)c1	-3.8%	-3.1	-14.6%	-7.8%
Cc1ccc(NC(=O)/C=C/c2ccc3c(c2)OCO3)nc1	-2.2%	-5.8	-34.9%	5.9%
CCc1ccc(NC(=O)C(C)OC(=O)c2ccc(NS(=O)(=O)c3ccc(C)c([N+](=O)[O-])c3)cc2)cc1 (stereo not given)	3.5%	-7.0	10.7%	-1.8%
CC(C)[C@H](NC(=O)N1c2ccccc2NC(=O)[C@@H]1C(C)C)C(=O)N1CCC(C(=O)O)CC1	1.2%	.	-12.7%	0.3%
COc1ccc(/C=C/C(=O)Nc2ccc3c(c2)CCC3)cc1OC	?	-19.9	-30.3%	14.1%
Cc1cc(C(=O)N/N=C/c2ccc(N3CCOCC3)cc2)c(C)o1	-0.2%	8.0	-28.0%	-8.4%
Fc1ccc(CSc2nncn2NCc2ccccc2)cc1	0.8%	3.0	-15.4%	8.5%
Cc1cc(OCc2cc(C(=O)NCCN3CCCCC3CO)no2)cc(C)c1Cl (stereo not given)	1.4%	.	?	13.4%
CC(C)CNC(=O)c1cc(-c2ccc(Cl)c(Cl)c2)on1	3.7%	-0.2	-9.7%	-2.0%
COc1cccc(-c2nnc(NC(=O)c3ccc4ncsc4c3)o2)c1	9.2%	-10.3	-14.3%	6.3%
CN(C)c1ccc(NC(=O)CCN2C(=O)c3cccc([N+](=O)[O-])c3C2=O)cc1	-0.1%	.	-5.2%	19.6%

Arranged by length of the SMILES (high to low): part of the list above.
SMILES	Rango-impB inh	GLA inh pH 4.5	miR-21 FLuc	Rango dissoc inh
CC(C)[C@H](NC(=O)N1c2ccccc2NC(=O)[C@@H]1C(C)C)C(=O)N1CCC(C(=O)O)CC1	1.2%	.	-12.7%	0.3%
CC(C)OCCCNC(=O)c1c(N)n(/N=C/c2cccs2)c2nc3ccccc3nc12	?	2.5	0.6%	?
COc1ccc(N2CCN(C(=O)COC(=O)c3ccc(OC(F)F)cc3)CC2)cc1	0.1%	.	.	-19.8%
O=C(NCc1ccccc1)C1CCN(S(=O)(=O)c2cccc3cccnc23)CC1	3.1%	1.4	-0.8%	38.6%
O=C(Cc1ccccc1[N+](=O)[O-])Nc1ccccc1C(=O)N1CCCC1	-1.4%	4.4	-1.0%	7.0%
COc1cccc(-c2nnc(NC(=O)c3ccc4ncsc4c3)o2)c1	9.2%	-10.3	-14.3%	6.3%
COc1ccc(CCNC(=S)NC(=O)c2ccc(Br)cc2)cc1OC	-1.4%	2.6	-9.3%	7.7%
O=C(COC(=O)c1ccccn1)NNC(=O)c1ccc(Br)cc1	0.7%	.	.	-4.6%
Cc1nc(SCC(=O)NC(=O)NCc2ccccc2)nc(C)c1C	-0.9%	-2.0	-5.7%	6.7%
CCN1C(=O)/C(=C/C2=Cc3ccccc3OC2C)SC1=S (stereo not given)	-0.4%	-0.4	-0.4%	?
Fc1ccc(-c2nnn(Cc3ccc(F)cc3Cl)n2)cc1	-1.6%	.	-40.1%	2.5%
CSc1ccccc1NC(=O)CN(C)Cc1ccc(Br)cc1	-1.0%	-17.0	-4.2%	12.3%
CCCCc1ccc(NC(=O)C2CCCO2)cc1 (stereo not given)	-5.5%	1.7	-64.5%	8.6%
